ALR inh: inhibitors of human sulfhydryl oxidase ALR. AID 485317. purified ALR, DTT oxidation, H2O2 HRP-luminol luminescence. P55789. inhibition, % (no concentration beside the values). 290,000 compounds, 3.8% hits;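 active = mean and each replicate at 75% or more; inconclusive = only one of the two met; inactive = neither met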;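 also: stock transfer was 7.5 nL into about 7.5 µL; 0% = neutral wells and 100% = wells with inactivated enzyme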
Target sequence (P55789 whole entry, looked up): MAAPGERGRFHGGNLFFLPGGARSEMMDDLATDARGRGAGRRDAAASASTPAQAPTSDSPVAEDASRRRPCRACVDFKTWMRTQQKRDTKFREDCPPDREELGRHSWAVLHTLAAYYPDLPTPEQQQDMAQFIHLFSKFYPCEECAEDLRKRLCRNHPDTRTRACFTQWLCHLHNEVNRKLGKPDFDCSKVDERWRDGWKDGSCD
Vif TR-FRET: inhibitors of Vif binding to APOBEC3G peptide, primary screen, biochemical, TR-FRET, GST-Vif 1-94, biotin-A3G peptide, dose response retest (AID 1117319). TR-FRET GST-Vif / biotin-A3G peptide binding; higher % means a stronger effect; test concentration not given here; strong numbers were not always called active. 260,000 compounds, 0.57% hits. inhibition, %; hits with a dose series show IC50 in µM;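 active = above the screen mean plus three standard deviations and confirmed in dose response; inconclusive = results disagree or hit not tested in dose response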;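 also: Vif residues 1-94 fused to GST binding biotinylated APOBEC3G peptide 110-148; 0% = full assay without inhibitor and 100% = GST in place of GST-Vif; retest series ran down from 100 µM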
Ecoli growth: E. coli growth inhibition. Escherichia coli growth, OD600, 23 h; hits give low values. AID 1053175. OD600 absorbance (no concentration beside the values). 330,000 compounds, 0.21% hits;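 active = OD600 absorbance below the run mean of sample wells minus 3.6 SD, in any replicate, cut at about 0.56 in these data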;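 also: stock transfer was 300 nL into about 60 µL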
FGF22 binding: shifts melting point of recombinant human FGF22. Q9HCT0. recombinant FGF22 thermal shift, SYPRO orange fluorescence; percent of sucrose octasulfate shift, DMSO zero. calls only at 9.99 µM. 340,000 compounds, 1.5% hits. AID 651658;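 active = melting point raised past a set limit in the mean and every replicate; inconclusive = no clear call; three in four hits are not shown here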
Target sequence (Q9HCT0 whole entry, looked up): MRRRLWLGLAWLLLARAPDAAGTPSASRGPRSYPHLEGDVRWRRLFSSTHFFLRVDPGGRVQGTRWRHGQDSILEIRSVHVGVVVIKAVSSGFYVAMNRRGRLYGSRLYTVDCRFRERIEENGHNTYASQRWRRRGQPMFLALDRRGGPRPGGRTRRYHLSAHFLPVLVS
HNF4A DNA FP: change in binding of human HNF4 alpha to DNA | P41235 | HNF4a-FITC DNA binding, fluorescence polarization, 1 h | activity change, % at 10 µM | 360,000 compounds, 0.3% hits; in the data active = activity change above about 30%, passing the limit was not always enough;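 also: controls were the assay level and a saturating level of protein; the project sought stronger binding though the title names inhibitors; some compounds called inactive have numbers as strong as hits; positive values seem to mean higher polarization but the record does not say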
AF4-AF9 inh: inhibitors of human MLL-AF4/AF9 interaction | 350,000 compounds, 0.47% hits | inhibition, % at 10 µM | P42568 | AlphaScreen, biotin-AF4 peptide binding to FLAG-AF9;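 active = every replicate reaching a set inhibition limit, whatever the replicate mean, cut at about 25% in these data; inconclusive = mean inhibition reaches that limit but some replicates miss it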;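 also: 0% = plate neutral control median and 100% = total signal loss; the record names both 10 and 1 µM as test concentration; the first replicate is given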
Target sequence (P42568 whole entry, looked up): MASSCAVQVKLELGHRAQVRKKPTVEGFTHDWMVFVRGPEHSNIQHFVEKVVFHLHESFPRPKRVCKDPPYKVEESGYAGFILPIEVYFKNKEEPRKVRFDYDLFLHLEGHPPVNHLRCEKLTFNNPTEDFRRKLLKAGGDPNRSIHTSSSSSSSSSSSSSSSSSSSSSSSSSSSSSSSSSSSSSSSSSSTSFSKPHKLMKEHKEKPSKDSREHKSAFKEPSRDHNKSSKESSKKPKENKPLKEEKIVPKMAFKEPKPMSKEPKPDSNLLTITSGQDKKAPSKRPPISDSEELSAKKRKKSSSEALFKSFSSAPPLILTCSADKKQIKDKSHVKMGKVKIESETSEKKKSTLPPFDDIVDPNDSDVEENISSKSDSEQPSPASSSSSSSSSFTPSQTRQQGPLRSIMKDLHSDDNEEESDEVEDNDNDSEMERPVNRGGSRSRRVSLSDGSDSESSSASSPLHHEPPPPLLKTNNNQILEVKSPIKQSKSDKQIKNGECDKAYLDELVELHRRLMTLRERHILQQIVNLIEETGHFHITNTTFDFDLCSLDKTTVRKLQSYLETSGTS
rRNA inh HTS: inhibitors of bacterial rRNA selective over humanized ribosomes. E. coli WT GFP vs humanized-ribosome RFP mutants, fluorescence, 24 h; hits give low values; DMSO median 0, no signal -100. GFP signal change (wild-type ribosome), % (no concentration beside the values). 350,000 compounds, 1.6% hits;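 active = significant combined selectivity score with lowered wild-type GFP, culture density cut under 30%, mutant RFP and density less affected; inactive = any of these conditions unmet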; also: one replicate is shown; some compounds called inactive have numbers as strong as hits
rRNA inh HTS OD600: further read-out of rRNA inh HTS, marked with its call; OD600 change, %; measured here: OD600 growth;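 optical density of the mix in the first replicate; 0 = DMSO median and -100 = no signal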
rRNA inh HTS RFP: second read-out of rRNA inh HTS, no call of its own (marks repeat the call); RFP signal change, %; measured here: RFP humanized mutant strains;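 first replicate; 0 = DMSO median and -100 = no signal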
Active calls of the source: *; i = inactive; ? = inconclusive; . = no result given; & = joins results of further samples. These rows are one share of the data. The share of hits here may be higher or lower than overall.

SMILES	ALR inh	Vif TR-FRET	Ecoli growth	FGF22 binding	HNF4A DNA FP	AF4-AF9 inh	rRNA inh HTS	rRNA inh HTS OD600	rRNA inh HTS RFP
O=C(O)CCCC(=O)Nc1ccc(C(=O)N2CCCCC2)c(Cl)c1	-17	0%	0.71	.	1.2	.	.	.	.
O=C(C[C@@H]1CC[C@@H](NC(=O)NC2CCCCC2)[C@@H](CO)O1)NCc1ccc(Cl)cc1	.	.	.	i	.	-1.4	0	10	0.3
COc1cc(C(=O)NC2CCN(C)CC2)ccc1Nc1ncc2c(n1)N(CCc1ccccc1)CCC(=O)N2C	.	.	.	i	1.2	9.3	-16	-17	8.9
Cc1cccc(C)c1NC(=O)CN(C)C(=O)c1cccc(-n2cccc2)c1	.	10%	0.7	i	-11	-1.9	4	12	0.0
CO[C@@H]1CN(C)C(=O)c2cc(NC(C)=O)ccc2OC[C@H](C)N(C(=O)c2ccncc2)C[C@@H]1C	.	.	.	i	.	4.2	1	-2	-1.4
c1ccc(-c2ccc(-c3ccccc3)[nH]2)cc1	.	-7%	0.7	i	0.7	5.8	7	2	-1.6
Cn1c(=O)c2c(nc(NCc3ccco3)n2Cc2ccccc2Cl)n(C)c1=O	13	32%&5%	0.69	.	-0.4	.	.	.	.
COc1ccc(CCNC(=O)/C(C#N)=C/c2ccc(OCC(=O)NCC3CCCO3)cc2)cc1OC (centres undefined)	-2	.	0.7	i	0.2	-0.4	-5	-7	1.4
COc1ccc(C(=O)Nc2ccc(CN3CCCCC3)cc2)cc1	0	10%	0.71	i	-1.6	0.8	15	4	-0.1
Cc1cc(C)c2c(c1)/C(=N/NC(=O)c1cc(C)oc1C)CCC2	-11	-2%	.	i	2.2	-1.2	10	15	-3.7

In another format: 4 of the compounds above.
Order of values – ALR inh | Vif TR-FRET | Ecoli growth | FGF22 binding | HNF4A DNA FP | AF4-AF9 inh | rRNA inh HTS | rRNA inh HTS OD600 | rRNA inh HTS RFP
- Cc1cc(C)c2c(c1)/C(=N/NC(=O)c1cc(C)oc1C)CCC2
 : -11 | -2% | . | i | 2.2 | -1.2 | 10 | 15 | -3.7
- CO[C@@H]1CN(C)C(=O)c2cc(NC(C)=O)ccc2OC[C@H](C)N(C(=O)c2ccncc2)C[C@@H]1C
 : . | . | . | i | . | 4.2 | 1 | -2 | -1.4
- O=C(C[C@@H]1CC[C@@H](NC(=O)NC2CCCCC2)[C@@H](CO)O1)NCc1ccc(Cl)cc1
 : . | . | . | i | . | -1.4 | 0 | 10 | 0.3
- O=C(O)CCCC(=O)Nc1ccc(C(=O)N2CCCCC2)c(Cl)c1
 : -17 | 0% | 0.71 | . | 1.2 | . | . | . | .

More records follow:
SMILES	ALR inh	Vif TR-FRET	Ecoli growth	FGF22 binding	HNF4A DNA FP	AF4-AF9 inh	rRNA inh HTS	rRNA inh HTS OD600	rRNA inh HTS RFP
COCCNC(=O)C[C@@H]1C=C[C@@H](NS(=O)(=O)c2ccc(C)cc2)[C@H](CO)O1	.	.	.	i	.	-1.8	-1	1	0.0
C[C@@H]1CN([C@@H](C)CO)S(=O)(=O)c2ccc(-c3cccc(C(=O)N(C)C)c3)cc2O[C@H]1CN(C)C(=O)Nc1ccc(F)cc1	.	.	.	i	.	0.8	-4	-5	-0.4
COc1cccc(-c2cccc(-c3nc(C(=O)NCc4ccc(Oc5ccccc5)cc4)cc4c3[C@@H](CCO)N(S(=O)C(C)(C)C)C4)c2)c1 (some centres undefined)	.	.	.	i	.	0.2	2	2	-2.0
COc1ccc(C(C)(C)C)cc1NC(=O)COC(=O)c1ccc([N+](=O)[O-])o1	-24	20%	0.73	i	-0.1	2.0	-5	-8	-1.6
CCN(C[C@H]1N[C@@](CC)(C(=O)OC)[C@H]2C(=O)N(Cc3ccccc3)C(=O)[C@@H]12)C(=O)c1ccccc1	.	1%	0.7	i	-1.3	1.1	-1	-7	2.2
O=C(c1ccc(-c2cccc(C(F)(F)F)c2)o1)N1CCCCCCC1	1	1%	0.68	i	-2.0	2.3	2	8	3.2
O=c1c(-c2ccccc2)[n+]([O-])c2ccccc2n1O	-20	8%	0.65	.	-2.3	.	.	.	.
O=C(COC(=O)c1n[nH]c(=O)c2ccccc12)c1ccc(Cl)cc1	0	-6%	.	.	-1.9	.	.	.	.
Cc1ccc(S(=O)(=O)Nc2ccc3c(c2)C(=O)N([C@@H](C)CO)C[C@H](C)[C@@H](CN(C)Cc2ccc(C(F)(F)F)cc2)OCCCC[C@@H](C)O3)cc1	.	.	.	i	.	3.0	0	-11	13
Cc1ccc(NC(=O)C2(S(=O)(=O)c3ccc(C)cc3)CC2)cc1	-8	1%	0.73	i	-1.9	5.7	-7	-12	-3.1
CN(CC(=O)Nc1ccc(Cl)cc1)S(=O)(=O)c1cccc2cccnc12	?	8%	0.74	i	1.4	3.2	-1	8	1.8
Cc1c(S(=O)(=O)N2CCc3ccccc3C2)c(=O)n(C)c(=O)n1C	-12	1%	0.75	i	-4.0	-12	6	1	-6.4
CCOC(=O)N1CCN(C(=O)CSc2ccc3nnc(CCNC(=O)c4ccc(OC)cc4)n3n2)CC1	-2	5%	0.72	i	-0.3	-9.1	1	-3	-12
CCc1nn(CC(=O)NCCN2CCOCC2)c(=O)c2cc3c(OC)cccc3n12	-4	.	0.68	i	1.2	0.5	14	7	-0.7
COC(=O)[C@@H](NC(=O)c1ccccc1OC1CCN(S(C)(=O)=O)CC1)C(C)C	-1	-13%	0.69	i	2.6	0.3	8	-7	0.6
CC(=O)N(C)C[C@@H]1OCc2ccccc2-c2ccccc2C(=O)N([C@H](C)CO)C[C@@H]1C	.	.	.	i	.	-4.8	2	7	-0.3
N#Cc1ccc(NC(=O)Cn2cnc(S(=O)(=O)N3CCCCC3)c2)cc1	-2	12%	0.65	i	-0.4	-0.6	4	9	-0.7
O=c1[nH]c(=S)[nH]c2nccnc12	.	-1%	0.7	i	-0.5	-0.5	22	24	5.1
CN(Cc1nc(-c2ccccn2)no1)S(=O)(=O)c1ccc(Cl)cc1	-5	1%	0.68	.	2.3	.	.	.	.
CC1(C)Cc2c(sc3c2c(=N)n(Cc2ccco2)c(=O)n3CC(=O)Nc2ccccc2)CO1	-3	1%	0.7	.	2.7	.	.	.	.
C[C@H]1CN([C@@H](C)CO)C(=O)c2cc(NS(C)(=O)=O)ccc2O[C@@H]1CN(C)Cc1ccc(Oc2ccccc2)cc1	.	.	.	i	.	8.2	2	-6	0.6
COCCCNC(=O)CN(c1cc([N+](=O)[O-])ccc1OC)S(C)(=O)=O	-3	3%	0.67	i	2.2	-0.6	6	21	2.9
Cc1cccc(C)c1OCC(=O)NC(Cc1c[nH]c2ccccc12)C(=O)O (centres undefined)	-4	6%	0.73	i	-2.2	-1.9	1	15	1.1
CCCCn1c(N)c(N(CC(C)C)C(=O)COC(=O)C2(c3ccccc3)CC2)c(=O)[nH]c1=O	2	-2%	0.64	i	-1.1	-0.2	8	1	1.1
CC1=C(C(=O)OCc2ccccc2)C(c2ccco2)C2=C(CC(C)(C)CC2=O)N1 (centres undefined)	.	3%	0.73	.	-0.9	.	.	.	.
O=C(NCc1ccccc1)[C@@H]1[C@@H](CO)[C@@H]2Cn3c(cccc3=O)[C@@H]2N1Cc1ccccc1F	.	.	.	i	.	1.7	2	4	-2.1
C[C@H]1CN([C@@H](C)CO)C(=O)c2cc(C#CC3CC3)cnc2O[C@H]1CN(C)C	.	.	.	i	.	-2.6	5	15	-2.4
CS(=O)(=O)NC1CCN(Cc2ccccc2)CC1	-3	15%	0.65	i	2.1	-6.2	15	11	-4.7
Cc1nc(SCC(=O)NCc2ccco2)c2oc3ccccc3c2n1	1	15%	0.76	.	3.4	.	.	.	.
COCCNc1nnc(SCC(=O)Nc2cc(C)on2)s1	1	4%	0.67	i	-1.8	-0.9	20	10	5.3
COc1cc(NC(=O)COc2ccccc2C)ccc1NC(=O)c1ccco1	-7	.	0.71	i	-0.5	-1.6	4	18	-0.4
Cc1ccnc(SCCn2c(Br)nc3c2c(=O)[nH]c(=O)n3C)n1	4	.	0.65	.	1.6	.	.	.	.
N#C/C(=C\c1cccc([N+](=O)[O-])c1)C(=O)Nc1cccnc1	97*	.	.	i	1.3	-2.7	28	21	4.2
Cc1ccc(C2C(C#N)=C(N)Oc3n[nH]c(-c4cccs4)c32)cc1 (centres undefined)	74	?	0.69	.	3.7	.	.	.	.
O=C(CCO)c1ccc(O)cc1	-17	-3%	0.72	i	-24	-0.9	.	.	.
CN1CCN2c3ncccc3Cc3ccccc3[C@@H]2C1	0	.	.	i	1.8	-0.9	.	.	.
Cc1nn(C)cc1CNC(=O)c1cccc(F)c1	.	-11%	0.69	i	4.0	7.5	5	8	-0.8
COc1cc2oc(=O)cc(-c3ccc(-c4ccc(F)c(Cl)c4)cc3)c2c(OC)c1OC	.	-2%	0.72	i	-1.4	-1.7	9	16	-1.1
O=C(NCC(c1ccc(F)cc1)N1CCOCC1)c1ccc(C(=O)c2ccccc2)cc1 (centres undefined)	-1	11%	0.67	i	1.1	8.8	-5	-4	-4.8
CCC(Sc1nnc2c3ccccc3n(CC)c2n1)C(=O)Nc1sc2c(c1C#N)CCCC2 (centres undefined)	.	-5%	0.72	.	-1.2	.	.	.	.
Cc1nn(-c2ccccc2)c2c1c(C)c(CCC(=O)N1CCOCC1)c(=O)n2C	14	.	0.7	.	1.4	.	.	.	.
COc1cc(/C=N/N2CCN(C3c4ccccc4-c4ccccc43)CC2)ccc1O	33	11%	.	.	1.0	.	.	.	.
COC(=O)[C@H]1[C@H](CO)[C@H]2Cn3c(ccc(-c4cccc(F)c4)c3=O)[C@H]2N1CC1CCCC1	.	.	.	i	.	4.9	-4	-26	14
COc1cccc(NC(=O)N(C)C[C@@H]2Oc3ncc(C#Cc4ccncc4)cc3C(=O)N([C@@H](C)CO)C[C@H]2C)c1	.	.	.	i	.	-0.4	-5	-1	0.2
Cc1ccc2c(c1)C(=O)N1c3cc(C)c(C)cc3NC(=O)C1C(=O)N2 (centres undefined)	.	.	.	i	-1.6	-0.7	2	6	-3.5
O=C(COC(=O)c1ccc(F)c(S(=O)(=O)N2CCOCC2)c1)Nc1ccc(Cl)cn1	.	-24%	.	i	-0.3	-1.9	2	11	2.7
CCOc1cc(C(=O)Nn2cnnc2)cc(OCC)c1OCC	3	2%	0.7	i	3.2	0.2	17	15	-0.1
COc1ccc(NC(=O)Nc2ccc3c(c2)C(=O)N([C@H](C)CO)C[C@@H](C)[C@@H](CN(C)C(=O)NC2CCCCC2)OCCCC[C@H](C)O3)cc1	.	.	.	i	.	-3.2	-3	-2	-3.0
O=C(c1ccc(CN2CCOCC2)cc1)N1CCN(c2ccccc2)CC1	42	10%	0.68	i	-1.1	4.2	7	-2	-1.6
CCOP(=O)(OCC)C(Nc1cccc([N+](=O)[O-])c1)c1ccc(OC)cc1 (centres undefined)	-2	-3%	0.61	i	-3.6	0.5	7	14	0.7
The results go on:
SMILES	ALR inh	Vif TR-FRET	Ecoli growth	FGF22 binding	HNF4A DNA FP	AF4-AF9 inh	rRNA inh HTS	rRNA inh HTS OD600	rRNA inh HTS RFP
O=C(Cc1cc(C(=O)O)c2ccccc2n1)Nc1ccccc1	-5	-20%	0.67	i	0.6	-2.9	6	2	-2.5
Cc1ccc(C(=O)N2CCC[C@@H]2C(=O)N2CCC[C@@H]2C(=O)NCc2ccccc2)cc1	.	.	.	i	.	0.4	14	8	1.2
C[C@H](CO)N1C[C@H](C)[C@H](CN(C)S(=O)(=O)c2cccc(C#N)c2)OCc2cnnn2CCCC1=O	.	-7%	.	i	2.3	-1.7&-0.5	-3	8	-3.3
O=C(O)C1CCCN1C(=O)Nc1ccc(F)cc1 (centres undefined)	-10	?	0.66	.	1.9	.	.	.	.

Compound activity: PubChem, several laboratories
